Vaccinia Venus: vaccinia inhibition (Venus reporter); Vaccinia virus Venus reporter expression, fluorescence; Potency, µM (highest dose often 36.5 µM), inactives show at the top dose activity change, negative = inhibition, most hits filed as inhibitors; hit rate 0.46% among 330,000; active means well fitted inhibition curve with a large enough effect; inconclusive means small, poorly fitted or top-dose-only effect; inactive means no such curve, though single readings can be large or run the other way; tested in A549 cells; also: nearly all actives have a fitted effect of over 30% in size; inactives centre near -10
VACV mCherry inh: inhibitors of vaccinia virus infection (mCherry reporter signal). Vaccinia virus mCherry reporter infection, fluorescence; about a quarter of the inactives have no number. Potency, µM (titrated, usually from 36.5 µM), inactives show at the highest dose activity change, negative = inhibition, most hits filed as inhibitors. AID 720579. hit rate 0.63% among 310,000; active = well fitted inhibition curve with a large enough effect; inconclusive = small, poorly fitted or top-dose-only effect; inactive = no such curve, though single readings can be large or run the other way; tested in A549 cells; also: nearly all actives have a fitted effect of over 35% in size; inactives centre near -10
* = called active by the depositor; i = inactive; ? = inconclusive; / = no result given; & = joins results of further samples; [ ] = another dose, or the depositor's remark. % is scaled to controls: 0 for no effect and ±100 for the full control effect; potency is read from the fitted curve at half-maximal effect.

SMILES | Vaccinia Venus | VACV mCherry inh
COc1ccc(S(=O)(=O)N2CC(C)N(S(=O)(=O)c3ccc(OC)cc3)CC2C)cc1 (stereo not given) | -1.8% | /
CCOc1cc(C(=O)Nc2ccc3oc(-c4ccc(F)cc4Cl)nc3c2)cc(OCC)c1OCC | -23.6% | ?
Cc1ccc(-c2nn(CC(=O)N(C)C)c(=O)c3ccccc23)cc1S(=O)(=O)N(C)C | -16.0% | -17.1%
O=C(NC1CCCCCCC1)c1cc(-c2ccccn2)nc2ccccc12 | -3.1% | -12.9%
COC(=O)Cc1[nH]nc2c1C1(CCSCC1)C(C#N)=C(N)O2 | -13.9% | i
Cc1cc([N+](=O)[O-])ccc1NS(=O)(=O)c1ccccc1 | -23.8% | -11.0%
CCCCN1C(=O)/C(=C2/C=CC=CN2C)SC1=S | 3.0% | -8.9%
CC(=O)Nc1ccc(S(=O)(=O)N(C)CC(=O)NC2=NCCS2)cc1 | -6.4% | /
COc1cc(OC)cc(-c2cc3nc(C)c(CCC(=O)O)c(C)n3n2)c1 | -9.7% | 9.3%
CC1CCCN(C(=O)/C(=C/c2ccco2)NC(=O)c2ccccc2)C1 (stereo not given) | 11.2% | -8.2%
CCO/C(C)=N/n1c2nc3ccccc3nc2c2c(=O)n(Cc3ccccc3Cl)c(C)nc21 | ? | -23.2%
COc1cc(Cl)c(C)cc1NC(=O)CCCn1c(=O)oc2ccccc21 | ? | -24.7%
Cc1ccc(/C=C/S(=O)(=O)NCC(=O)OCC(=O)Nc2ccc(C(N)=O)cc2)cc1 | -12.0% | -17.4%
Cc1nc(Cl)sc1C(=O)Nc1ccc(Cl)cc1 | -13.4% | -17.1%
CCN1C[C@@H]2[C@@H]3C(=O)N(Cc4ccccc4)C(=O)[C@@H]3[C@](C)(C1=O)N2C(=O)c1ccc(Cl)c(Cl)c1 | -12.1% | -13.9%
CC(OC(=O)CNC(=O)c1ccc2c(c1)OCO2)C(=O)NCCC1=CCCCC1 (stereo not given) | -19.9% | /
CCOc1ccc(NC(=O)Cn2c(CCC(=O)O)ccc2-c2ccc(Cl)cc2)cc1 | -7.6% | -5.0%
Cc1nnc(SCc2ccccc2C#N)n1-c1ccccc1 | -15.3% | -0.5%
CCCCC(=O)Nc1ncc2c(n1)CC(C)(C)CC2=O | -21.6% | -0.7%
O=C(OCc1cc(=O)n2nc(C3CC3)sc2n1)c1ccc(F)cc1 | -4.2% | -3.2%
CCc1cc(=O)oc2cc(OCC(=O)N3CCC[C@H]3C(=O)O)ccc12 | 3.8% | 3.3%
Cc1cccc2nc(CSc3nc4ccc([N+](=O)[O-])cc4[nH]3)cn12 | 1.1% | -12.5%
Cc1nn2c(C(F)(F)F)cc(-c3ccc(OC(C)C)cc3)nc2c1C#N | -18.1% | -18.9%
CCCC(/C=C/c1ccc(OC(C)=O)cc1)=C1/c2ccccc2C(=O)N1c1ccccc1 | -27.3% | ?
COc1ccc(/C=C(/NC(=O)c2ccc(C)cc2)C(=O)NCC2CCCO2)cc1 (stereo not given) | -11.7% | -0.3%
O=c1c(N2CCc3ccccc3C2)csc2ccc(Cl)cc12 | -12.2% | -1.1%
CC1(C(=O)NS(=O)(=O)c2cccc(F)c2)CCN1C(=O)Cc1ccc(-c2ccccc2)cc1 (stereo not given) | -3.0% | -14.4%
C(=C\c1ccccc1)/CN1CCN(C(c2ccnc3ccccc23)c2nnnn2C2CCCCC2)CC1 (stereo not given) | -12.7% | -4.6%
COc1ccccc1CC1(C)NC(=O)N(CC(=O)N2CC(C)OC(C)C2)C1=O (stereo not given) | ? | -21.5%
Cc1nc2cccc(C)n2c(=O)c1Cl | 13.7% | -10.3%
CC1CCC(NC(=O)COc2ccc(C(=O)c3ccccc3)cc2)CC1 (stereo not given) | -21.4% | -16.1%
O=C(O)P(=O)(O)O | -0.7% | 2.8%
CCCn1c(N)c(C(=O)CSc2nnc(-c3c[nH]c4ccccc34)n2C2CC2)c(=O)[nH]c1=O | -3.8% | -13.4%
O=C(/C=C/c1cccnc1)c1ccccc1O | -4.5% | -5.7%
O=C(Nc1ccccc1F)c1ccccc1-c1ccc(C(F)(F)F)cc1 | 1.6% | i
COc1cccc(NC(C(=O)Nc2cccc(C(C)=O)c2)c2ccccc2)c1 (stereo not given) | -15.4% | -10.9%
O=C(O)CCN1C(=O)/C(=C\c2cccc(OCc3ccccc3)c2)SC1=S | 11.9% | 1.4%
O=C(c1cc(-c2ccc(Cl)c(Cl)c2)on1)N1CCN(c2ccccc2)CC1 | -10.8% | i
O=C(Cn1c(=O)c2cccn2c2ccccc21)NCc1ccccc1F | -11.1% | -15.7%
Oc1ccc(C[C@@H](CN2CCCC2CN2C(=S)NC[C@@H]2Cc2ccccc2)N2C[C@H](Cc3ccccc3)N(CC3CCCCC3)C2=S)cc1 (stereo not given in full) | -6.0% | -10.8%
CCc1ccc2c(COC(=O)c3n[nH]c4ccccc34)cc(=O)oc2c1 | ? | -29.0%
Cc1ccccc1OS(=O)(=O)c1cccc([N+](=O)[O-])c1 | -15.2% | -3.2%
CCc1ccc(NC(=O)CN2C(=O)COc3ccc(S(=O)(=O)N4CCCC4)cc32)cc1 | 11.7%[7.34 µM] | 5.3%[7.34 µM]
COc1ccccc1-c1ccc2c(c1)O[C@@H](CN(C)C(=O)c1ccncc1)[C@H](C)CN([C@@H](C)CO)S2(=O)=O | -15.5% | 2.2%
Cc1cc(=O)n2c(n1)SCOC2 | -1.7% | -18.6%
N/C(=N\OC(=O)c1ccc(F)cc1)c1ccccc1 | -4.8% | -2.3%
CS(=O)(=O)N1CCc2cc(C(=O)NCc3ccccc3)ccc21 | 0.2% | -0.7%
Cc1cc(OC(C)C(=O)NC(Cc2c[nH]c3ccc(O)cc23)C(=O)O)c2c(C)c(C)c(=O)oc2c1 (stereo not given) | 3.8% | 4.3%
Cc1ccc(CNC(=O)c2cc(C)nn2-c2ccccc2)cc1 | 6.3% | -16.3%
COC(=O)NNC(=O)c1ccccc1C | -6.6% | -2.1%
Cc1ccc(NC2=NCCCS2)cc1Cl | 2.5% | ?
CCCC(=O)Nc1nnc(S(=O)(=O)N(C)c2ccccc2)s1 | -4.6% | -6.4%
Cc1ccc(O)c(CNc2cccc3cccnc23)c1 | -16.4% | -7.1%
CCc1ccc(S(=O)(=O)NCCc2cn3cccc(C)c3n2)s1 | -15.7% | ?
Cc1ccc2nc(SC(C)C(=O)N3CC(C)OC(C)C3)[nH]c2c1 (stereo not given) | -12.1% | -12.3%
C/C(=N/OC(=O)c1ccccc1)c1oc(C)nc1C | -1.7% | -3.2%
COc1ccc(NC(=S)NCC(c2ccco2)N2CCCC2)cc1 (stereo not given) | -3.9% | 0.9%
Cc1ccc(CNC(=O)C2(C)Oc3ccccc3NC2=O)cc1 (stereo not given) | -9.2% | -18.1%
Cc1nc2cc(C(F)(F)F)ccc2n1CCNc1nc(-c2ccc([N+](=O)[O-])c(Cl)c2)cs1 | -27.1% | ?
Fc1ccccc1CCNc1nnnn1-c1ccccc1 | -15.4% | -20.5%

Next entries.
SMILES | Vaccinia Venus | VACV mCherry inh
Cc1cc(C)nc(NC(=O)c2ccc([N+](=O)[O-])c(C)c2)n1 | 0.5% | i
COCCNC(=S)N1CCC2CC1c1cc(-c3ccc4c(c3)OCO4)ccc12 (stereo not given) | -1.0% | i
CCCN(CCC)S(=O)(=O)c1ccc(C(=O)O)cc1 | -10.9%&5.8% | -5.0%
O=C(CO/N=C1\CCCc2nonc21)Nc1ccccc1Cl | -5.1% | -15.9%
COc1ccc(CN2Cc3cc(N4CCCCC4)ccc3-n3nncc3C2)cc1 | 7.7% | i
CCOC(=O)c1c(NC(=O)COc2ccc(Cl)cc2Cl)sc2c1CCCCC2 | 20.2% | 7.9%
CCCn1nnnc1NCc1ccccc1OCC | -6.4% | -17.5%
Cc1cc(C(=O)Nc2cccc(C)c2C)n(-c2ccccc2)n1 | -19.6% | -24.8%
COc1ccc(N2C(=O)CC(NCc3cccc(F)c3)C2=O)cc1 (stereo not given) | -16.2% | -15.0%
Clc1ccc(C2=Nn3c(nnc3-c3cccnc3)SC2)s1 | -7.1% | -9.0%
CC(C)NC(=O)C1CCC(Cn2c(=O)c3sccc3n(CC(=O)Nc3ccccc3)c2=O)CC1 (stereo not given) | -12.1% | -11.5%
O=S(=O)(Cc1ccccc1Cl)NCc1ccccc1 | -1.8% | ?
Cc1ccc(Nc2nc(C)cc(C)n2)c(C(=O)O)c1 | -12.7% | -17.7%
Nc1ccccc1SC(CC(=O)c1ccccc1)c1ccccc1 (stereo not given) | -0.8% | -8.8%
CCOc1ccccc1NC(=O)CCn1nc(C)c(S(=O)(=O)N2CCCCC2)c1C | -9.4%&-15.4% | -13.6%&-8.1%
Cc1ccc(C(=O)NC(=S)NNC(=O)COc2ccccc2C)cc1 | -1.9% | -0.5%
COC(=O)C1=C(N)c2c(F)cccc2C1(C#N)c1ccc(F)cc1 (stereo not given) | -12.1% | /
COc1ccc(-c2noc(-c3nnn(-c4cc(C)ccc4C)c3N)n2)cc1 | -2.1%[7.34 µM] | -5.9%[7.34 µM]
O=C1C(=O)N(C2CCCC2)C(=O)N1Cc1c(F)cccc1Cl | -5.2% | 3.3%
COc1cc(NC(=O)Cn2cnc(C(=O)Nc3ccc(C)c(C)c3)n2)cc(OC)c1OC | -15.2% | i
c1ccc(CSc2nc3ncccc3[nH]2)cc1 | -13.7% | -11.6%
CC(=O)N1CCN(C(=O)c2cc(-c3ccc(Cl)s3)nc3ccccc23)CC1 | -15.1% | -3.7%
COc1ccc(N2C(=O)CC(N3CCC(O)(c4ccc(Br)cc4)CC3)C2=O)cc1 (stereo not given) | 6.8% | /
CC(=O)c1cccc(NC(=O)CCN2C(=O)C3C4CCC(C4)C3C2=O)c1 (stereo not given) | -19.5% | -10.6%
CC(C)c1ccc(NC(=O)CSc2nc(-c3ccccc3F)nc3nc[nH]c23)cc1 | -11.4% | -22.5%
CCOC(=O)CSc1nc(C(C)C)nc2sc(C)c(C)c12 | -2.7% | -4.7%
Cc1ccccc1-c1nc(CS(=O)CC(=O)NCc2ccccn2)c(C)o1 (stereo not given) | -20.3% | -9.2%
CCC(=O)Nc1ccc(NC(=O)CSc2nnnn2-c2ccc3c(c2)OCCO3)cc1 | -27.9% | -24.7%
CC(C)(C)OC(=O)NCCCC[C@@H](C(=O)NCCCCCCCCCCC(=O)N1CCN(C(=O)OC(C)(C)C)CC1)n1cc(CCO)nn1 | ? | -5.2%
CCn1c(=O)sc2cc(NS(=O)(=O)c3ccc(F)c(C)c3)ccc21 | -11.8%[7.34 µM] | -7.4%[7.34 µM]
S=C(NCCCc1ccccc1)NC1CCCCC1 | -8.1% | i
COc1cc(OC)c(OC)cc1CNC(=O)CCN1C(=O)c2cccc([N+](=O)[O-])c2C1=O | 9.6% | -8.1%
Clc1ccccc1Cn1nnc2c(NCC3CC3)ncnc21 | -10.0% | i
COc1ccccc1Nc1nc(-c2sc(NC(=O)c3ccccc3)nc2C)cs1 | -19.3% | ?
C=CCOc1cccn2c(N(C=O)Cc3ccccc3)c(CC)nc12 | -3.5% | i
O=C(/C=C/[C@H]1O[C@@H](n2cnc3c(NC(=O)c4ccccc4)ncnc32)[C@H](O)[C@@H]1O)NCC1CCCCC1 | -6.4% | 23.6%
O=[N+]([O-])c1ccccc1S(=O)(=O)Oc1ccc(C(=S)N2CCOCC2)cc1 | ? | ?
O=C(Nc1ncccc1O)c1ccc(Cl)c(S(=O)(=O)N2CCCCC2)c1 | -18.0% | -17.4%
O=C(Nc1ccc2c(c1)OCCO2)C(c1ccc(C(F)(F)F)cc1)n1c(=O)c(-c2cc3ccccc3[nH]2)nc2ccccc21 (stereo not given) | ? | -14.3%
CC(=O)Nc1ccc(S(=O)(=O)N2CCc3c(Cl)cccc3C2)cc1 | -26.2% | -44.3%
O=P1(Nn2cnnc2)C=C(c2ccccc2)OC(c2ccccc2)=C1 | -6.6% | i
Cc1ccc(-n2ncc3c(NC(C)c4ccccc4)ncnc32)cc1 (stereo not given) | 1.1% | -11.3%
COc1ccc(Cn2c(CNC(=O)Cc3cccc([N+](=O)[O-])c3)nc3cccnc32)cc1 | -5.2% | i
CC(=O)N1CCc2cc(S(=O)(=O)NC(Cc3ccccc3)C(=O)Nc3ccc(Cl)cc3)ccc21 (stereo not given) | -11.3% | -7.5%

Bioassay records: PubChem BioAssay, National Center for Advancing Translational Sciences (NCATS)
